Mtb H37Rv = M. tuberculosis H37Rv growth inhibitors, H37Rv strain (AID 1626); M. tuberculosis H37Rv growth inhibition; higher % means a stronger effect; inhibition, % at 10 µM, or IC50 in µM where a hit was titrated; hit rate 0.95% among 220,000;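 active = confirmed in a dose series; inconclusive = inhibition above 80% but not taken into the dose series; inactive = below 80% or under 30% at every dose of the series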;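 note: bacteria incubated seven days before Alamar blue readout; 0% = bacteria only wells and 100% = bacteria with antibiotic wells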
Mtb bLac sens = beta-lactam sensitization of Mtb H37Rv. M. tuberculosis H37Rv growth with meropenem, percent inhibition; hits of this screen are not shown here. inhibition, % at 25 µM. hit rate 0.27% among 330,000;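 active = about 74% or more and at least 40 points above the plate without the antibiotic, then above 30% in a dose series; inconclusive = first-round hits that could not be retested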;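 note: growth measured after seven days incubation then overnight dye step; 0% = bacteria only wells and 100% = bacteria with antibiotic; twin plates without the antibiotic show which effects depend on it; some results filed as inactive read as strong as hits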
Arbovirus anti = arbovirus infection inhibition; arbovirus infection cell-based antiviral screen; hit rate 0.37% among 200,000; AID 1251; inhibition, % at 10 µM;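 active = inhibition from about 30%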;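 note: bluetongue infection of BSR cells; cell survival read as ATP light after 72 h; 0% = infected wells without compound and 100% = uninfected wells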
RecA splice inh = blocks M. tuberculosis RecA intein splicing; AID 2221; hit rate 0.75% among 290,000; inhibition, %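 (about 9 µM by stock and volumes)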; cell-free RecA intein splicing, fluorescence; P9WHJ3; in the data active = inhibition above about 30%; inconclusive = no clear call, values can overlap the other calls;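 note: 0% = vehicle wells and 100% = reference inhibitor control wells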
Target sequence (P9WHJ3 whole entry, looked up, canonical isoform): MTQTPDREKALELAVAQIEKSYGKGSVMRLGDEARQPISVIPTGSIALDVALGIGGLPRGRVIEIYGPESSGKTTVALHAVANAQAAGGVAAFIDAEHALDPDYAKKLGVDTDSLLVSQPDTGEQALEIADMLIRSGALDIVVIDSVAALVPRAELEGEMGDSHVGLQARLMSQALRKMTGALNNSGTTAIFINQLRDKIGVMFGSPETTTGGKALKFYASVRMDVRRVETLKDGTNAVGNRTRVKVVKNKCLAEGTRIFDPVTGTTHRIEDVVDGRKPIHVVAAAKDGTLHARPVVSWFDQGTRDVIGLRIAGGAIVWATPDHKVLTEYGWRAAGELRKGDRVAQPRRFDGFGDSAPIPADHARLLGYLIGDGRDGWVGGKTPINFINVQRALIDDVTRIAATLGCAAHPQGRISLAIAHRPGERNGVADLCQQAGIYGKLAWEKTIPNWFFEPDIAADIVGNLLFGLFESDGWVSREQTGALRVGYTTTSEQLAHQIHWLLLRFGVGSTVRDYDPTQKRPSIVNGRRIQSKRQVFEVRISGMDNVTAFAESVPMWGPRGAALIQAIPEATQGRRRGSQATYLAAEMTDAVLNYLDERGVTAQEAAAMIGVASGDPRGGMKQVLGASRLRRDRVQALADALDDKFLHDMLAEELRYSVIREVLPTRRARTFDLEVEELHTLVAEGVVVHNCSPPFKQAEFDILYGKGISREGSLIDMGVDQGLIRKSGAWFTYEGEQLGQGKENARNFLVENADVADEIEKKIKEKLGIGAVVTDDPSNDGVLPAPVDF
YopH PTP inh = YopH (Yersinia) phosphatase inhibition | AID 898 | hit rate 0.16% among 140,000 | inhibition, %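 (about 10 µM by stock and volumes)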 | fluorescence Ex485/Em525;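 active = inhibition of 50% or more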;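 note: controls were vehicle for no effect and minimum signal wells for full effect; inactives centre near -20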
Arbovirus anti repeat = further read-out of Arbovirus anti, marked with its call; inhibition, %; measured here: 10K subset replicate screen; many hits read low in the repeat;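 first of two repeat runs on a subset; 0% = infected and 100% = uninfected wells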
The depositor's hits bear a star; u = inconclusive; x = not tested or not shown. This is a subset (hit frequency here may not be typical).

SMILES	Mtb H37Rv	Mtb bLac sens	Arbovirus anti	RecA splice inh	YopH PTP inh	others
CCOP(=O)(OCC)C(NC(=O)CN1C(=O)c2ccccc2S1(=O)=O)C(Cl)(Cl)Cl (configuration not stated)	-4%	1	2	-3.0	-33
CCn1c(SCc2c(Cl)cccc2Cl)nnc1-c1nn(-c2ccccc2)ccc1=O	x	-7	-6	3.8	-26
Cc1nnc2n1N=C(c1ccccc1)CS2	x	-4	x	-0.8	x
Cc1c(NC(=O)CSc2ccccc2F)c(=O)n(-c2ccccc2)n1C	2%	-2	7	0.4	x
O=C(c1ccc(S(=O)(=O)Nc2cccc(C(F)(F)F)c2)cc1)N1CCOCC1	x	4	x	-2.3	x
O=C(NCc1cn2ccccc2n1)c1ccccc1	6%	-8	-1	-0.8	-27
CCOc1cc(NC(=O)c2ccccc2C(=O)O)c(OCC)cc1NC(=O)c1ccccc1F	x	4	x	-1.3	x
Cc1cc(C)cc(NC(=O)C(OC(=O)c2ccc(NC(=O)CC#N)cc2)c2ccccc2)c1 (configuration not stated)	x	1	x	6.3	x
CC(=O)Nc1ccc(-c2nn[nH]n2)cc1	-8%	-13	x	-1.1	x
Cc1ccn2c(=O)nc(SCC(=O)N3CCCCCC3)nc2c1	x	4	x	1.0	x
O=[N+]([O-])c1cc(C(F)(F)F)c(Cl)cc1N1CCN(CCO)CC1	-1%	-1	-2	-2.6	-14
CC(=O)NC(CC(C)C)C(=O)NC(Cc1ccccc1)C(N)=O (configuration not stated)	-3%	x	1	-1.4	-31
CC1Cn2c(COc3ccccc3)nnc2S1 (configuration not stated)	4%	u	11	-2.1	-16	Arbovirus anti repeat=2
COCCn1c(=NC(=O)CSCC(=O)N2CCOCC2)sc2ccccc21	x	3	x	-3.2	x
CN1/C(=C\C(=O)Nc2ccc(Cl)cc2)C(C)(C)c2ccccc21	30%	99	-45	21	2
CC(C)NC(=S)Nc1cccc2cnccc12	3%	-1	-9	-7.4	-26
O=C(NC1=NCCS1)c1cccc2ccccc12	6%	9	-1	-10	x
O=C(CCN1CCOCC1)NNC(=O)Nc1cccc([N+](=O)[O-])c1	x	-4	x	0.1	x
Cc1ccccc1NC(=O)CN1C(=O)CSc2ccc(S(=O)(=O)N3CCCCC3)cc21	x	-1	x	-1.9	x
COc1cccc(CNC(=O)[C@H](CC(C)C)NC(=O)N2CCn3c2nc2ccccc23)c1	x	4	x	3.3	x

As a short view, some entries already given:
SMILES	Mtb H37Rv	Mtb bLac sens	Arbovirus anti	RecA splice inh	YopH PTP inh	others
CCOP(=O)(OCC)C(NC(=O)CN1C(=O)c2ccccc2S1(=O)=O)C(Cl)(Cl)Cl (configuration not stated)	-4%	1	2	-3.0	-33
CCn1c(SCc2c(Cl)cccc2Cl)nnc1-c1nn(-c2ccccc2)ccc1=O	x	-7	-6	3.8	-26
Cc1nnc2n1N=C(c1ccccc1)CS2	x	-4	x	-0.8	x
Cc1c(NC(=O)CSc2ccccc2F)c(=O)n(-c2ccccc2)n1C	2%	-2	7	0.4	x
O=C(c1ccc(S(=O)(=O)Nc2cccc(C(F)(F)F)c2)cc1)N1CCOCC1	x	4	x	-2.3	x
O=C(NCc1cn2ccccc2n1)c1ccccc1	6%	-8	-1	-0.8	-27

Further records follow.
SMILES	Mtb H37Rv	Mtb bLac sens	Arbovirus anti	RecA splice inh	YopH PTP inh	others
Cc1cc(C)n(-c2ccc(C(=O)Nc3ccc(S(=O)(=O)NCc4ccco4)cc3)cc2)n1	70%	91	-13	2.7	-47
O=C(CN1C(=O)C2CCCN2c2ncc(Cl)cc21)NCc1ccc2c(c1)OCO2 (configuration not stated)	x	x	-3	x	-46
COC(=O)CC1COc2ccccc2N1C(=O)c1ccc(Br)cc1 (configuration not stated)	10%	4	-1	4.2	x
CCC(=O)c1cn(CC(=O)OC)c2ccccc12	3%	-12	7	-1.2	-10
Cc1ccc(CC(=O)N2CCN(C)CC2)cc1	x	-12	x	-3.0	x
CCc1nnc(NC(=O)c2nc3nc(C)cc(C)n3n2)s1	x	-18	16	1.7	-20
Cc1cccc(CN2CCN(CC(=O)NCc3cccs3)C2=O)c1	-12%	-2	5	x	4
CC(=O)NC(CCS(C)(=O)=O)C(=O)Nc1cccc(C(C)=O)c1 (configuration not stated)	-7%	3	7	-2.3	-14
COC(=O)c1[nH]c2ccccc2c1NC(=O)CN1CC(C)OC(C)C1 (configuration not stated)	-1%	-3	4	-0.7	-26
O=C(/C=C/c1ccccc1Cl)Nc1cccc(S(=O)(=O)NC2=NCCCCC2)c1	9%	-1	-25	6.3	-30
Cc1nnc(SCC(=O)Nc2cc(S(C)(=O)=O)ccc2Cl)n1Cc1ccccc1	x	-3	x	-0.8	x
C/C(=N\NC(=S)Nc1ccc(C)cc1)c1cc2ccccc2o1	75%	9	x	-1.5	x
Cc1cccc(OCCCC(=O)Nc2ccc3c(c2)OCO3)c1	66%	65	-17	5.9	-5
CCCCn1c(N)c(N(CC(C)C)C(=O)C2CCN(C(=O)c3ccc(Cl)cc3)CC2)c(=O)[nH]c1=O	x	-20	x	-3.4	x
COc1ccc(-c2csc(NC(=O)Nc3ccccc3)n2)cc1	x	-2	x	-2.2	x
CC(C)Oc1ccccc1C1CC(=O)Nc2cc3c(cc21)OCCO3 (configuration not stated)	-2%	6	-12	1.6	-12
O=C(NNc1cc(N2CCOCC2)nc(N2CCOCC2)n1)c1ccc(Cl)c(Cl)c1	-12%	-9	9	2.6	-21
COc1ccccc1/C=C1\SC(=S)N(NS(=O)(=O)c2ccc(C)cc2)C1=O	x	-1	x	2.9	x
COC(=O)C1=C(C)N(CCCC(=O)O)C(=O)NC1c1ccc([N+](=O)[O-])cc1 (configuration not stated)	-12%	-5	x	-2.0	x
COc1ccc(CCNC(=O)CNC(=O)Cn2cnc3sc(C)c(C)c3c2=O)cc1OC	8%	1	5	0.9	x
COc1ccccc1C(=O)Nc1nc2cc3c(cc2s1)OCO3	7%	2	x	-2.7	x
Cc1onc(-c2ccccc2Cl)c1C(=O)NCC1CCCO1 (configuration not stated)	-12%	3	7	0.1	-41	Arbovirus anti repeat=2
CCN(CC)Cc1c(C(=O)N/N=C(\C)c2ccncc2)nnn1-c1nonc1N	x	-4	x	3.4	x
O=C(COC(=O)c1cnccn1)NC(=O)c1ccccc1	x	-12	x	0.4	x
COC(=O)C1=C(c2ccc(S(C)(=O)=O)cc2)C[C@@H]2CC[C@H]1N2C(=O)NCc1ccccc1	-3%	-2	x	1.3	x
CCOC(=O)/C(=N\Nc1ccccc1Cl)N(C)C1CCS(=O)(=O)C1 (configuration not stated)	3%	-7	-12	1.5	x
COc1ccc(/C=C/C(=O)O)cc1S(=O)(=O)NCc1cccnc1	x	-13	x	0.4	x
Oc1c(CN2CCOCC2)cc(COCc2ccccc2)c2cccnc12	4%	13	-21	-0.7	-26
Cc1cccc(NC(=O)CNC(=O)N2CC(=O)Nc3ccccc32)c1C	x	0	x	1.0	x
CNC(=S)NNC(=O)c1cccn(Cc2ccccc2)c1=O	2%	1	7	3.0	x
O=C(O)/C=C/C(=O)Nc1nccs1	-11%	-6	x	-3.3	x
CCOc1nc(NCCO)nc(Nc2ccc([N+](=O)[O-])cc2)n1	0%	-2	-7	-1.0	-17
Cc1ccc(S(=O)(=O)N2CCOCC2)cc1NC(=O)COC(=O)CNC(=O)c1ccc(Cl)cc1Cl	x	-5	x	2.3	x
c1ccc(-c2csc(Nc3ccc4c(c3)OCCO4)n2)cc1	-2%	-3	-11	6.6	-22
Cc1cc(OCC(=O)N(Cc2ccco2)C2CCS(=O)(=O)C2)cc(C)c1Cl (configuration not stated)	-3%	0	x	-2.0	x
COc1ccc(OC)c(NC(=O)CN2C(=O)COc3ccc(S(=O)(=O)N4CCCC4)cc32)c1	x	-3	x	4.8	x
O=C(NCC1CC1)Nc1cccs1	0%	-1	x	0.5	x
C=CCNC(=O)CSc1nnc(-c2ccccc2Cl)n1-c1c(C)n(C)n(-c2ccccc2)c1=O	-3%	-6	-9	-10	-10
COc1ccc(C2Nc3ccc(Br)cc3C(c3ccccc3)N2CC(=O)O)cc1 (configuration not stated)	14%	-4	21	-1.1	x
COc1ccc2c(c1)c(C(=O)CN1CCc3ccccc3C1)c(C)n2C	8%	6	x	1.2	x

Overlap with the part before: four entries, followed by the next part.
SMILES	Mtb H37Rv	Mtb bLac sens	Arbovirus anti	RecA splice inh	YopH PTP inh	others
O=C(NCC1CC1)Nc1cccs1	0%	-1	x	0.5	x
C=CCNC(=O)CSc1nnc(-c2ccccc2Cl)n1-c1c(C)n(C)n(-c2ccccc2)c1=O	-3%	-6	-9	-10	-10
COc1ccc(C2Nc3ccc(Br)cc3C(c3ccccc3)N2CC(=O)O)cc1 (configuration not stated)	14%	-4	21	-1.1	x
COc1ccc2c(c1)c(C(=O)CN1CCc3ccccc3C1)c(C)n2C	8%	6	x	1.2	x
CCOC(=O)c1c(C)oc2c1c(C=NCc1ccccn1)c(O)c1ccccc12	x	x	-9	x	57*
CCCC(=O)Nc1cc(C)c(NC(=O)Cc2ccccc2)cn1	x	6	-1	1.5	-39	Arbovirus anti repeat=-1
O=C(Cn1cnnn1)Nc1cccc(S(=O)(=O)N2CCCCC2)c1	4%	-3	3	-1.4	x
COc1ccc(NC(=O)CN(C)C(=O)CSCC(=O)Nc2ccc(C)cc2)cc1	x	-2	x	-5.7	x
CCCCC(CC)C(=O)Nc1ccc(C#N)cc1 (configuration not stated)	-7%	-4	0	-2.6	-1
CCN(CC)CCOC(=O)c1ccc(N/C=C(/C#N)c2nc(-c3cc4ccccc4oc3=O)cs2)cc1	x	14	x	-12	x
COC(=O)c1ccc(-c2ccc(Cl)cc2)nc1C	4%	7	6	2.6	-25
CN1C(N)=NC(=O)/C1=C/c1ccccc1F	3%	2	6	4.2	x
CCn1c(COc2ccc(C)cc2)nnc1SCC(=O)Nc1ccc(S(N)(=O)=O)cc1	5%	3	5	-2.0	-52
CCCCn1c(SCC(=O)N2CCCC2)nc2c1c(=O)n(C)c(=O)n2C	-7%	-7	-1	0.1	-11
O=C(CCc1ccccc1)NNC(=S)NCc1ccc(Cl)cc1	x	15	x	2.9	x
CCOc1ccc(N(CC(=O)NCc2ccco2)S(C)(=O)=O)cc1	-1%	-17	4	1.5	-14
COC(=O)c1c(-c2ccccc2Cl)noc1/C=C/N(C)C	x	1	1	-44	x
CCOP(=O)(OCC)C(O)c1ccc(Br)cc1 (configuration not stated)	-8%	-2	-7	-1.0	-2
COc1ccc(C)cc1NC(=O)c1cc2c(CO)cnc(C)c2oc1=N	-14%	5	1	1.0	-33	Arbovirus anti repeat=-3
O=C(CCN1C(=O)COc2ccccc21)NCCCN1CCN(c2ccccc2F)CC1	5%	3	4	-0.9	-46
O=C(Nc1nccc(-c2cccs2)n1)c1cccs1	x	5	-2	-0.7	-12
Cc1sc2nc(C)n(/N=C/c3ccc(O)cc3O)c(=O)c2c1C	1%	5	9	0.8	x
Cc1ccc2cccc(Oc3nnnn3-c3ccccc3)c2n1	-10%	80	6	2.8	-44
O=C(/C=C/c1cccc([N+](=O)[O-])c1)NCC1CCCO1 (configuration not stated)	-11%	7	-1	-2.3	-31
CCN(CC)c1ccc(NS(=O)(=O)c2ccc(-c3ccc(=O)[nH]n3)o2)c(C)c1	x	1	x	-7.8	x
O=C(CCC(=O)Nc1ccc(F)cc1)N/N=C/c1ccc(Br)cc1	x	65	x	-1.2	x
Clc1ccc(OCc2nnc(-c3ccccc3Br)o2)cc1	0%	13	-11	23	-40
O=C(O)CCc1ccc(-c2ccc(Br)cc2)n1Cc1ccco1	-2%	53	8	5.1	-19
N/C(=N\OC(=O)N1CCOCC1)c1ccc(Cl)cc1	-5%	2	-29	1.3	-20
CCOc1ccc(NS(=O)(=O)c2ccc(NC(=S)NC(C)=O)cc2)cc1	-4%	4	13	1.5	x
C=CCNC(=O)/C(=C/c1ccc(Br)cc1)NC(=O)c1ccccc1OC	-8%	6	-2	-1.8	x
O=C(NCc1ccccc1)c1ccc2nc(N3CCOCC3)sc2c1	-9%	-2	x	-0.7	x
C/C(=C(\C#N)C(=O)NCCN1CCOCC1)N(C)C	6%	-6	0	-4.7	-11
Cc1ccc(S(=O)(=O)N(C(=O)c2ccncc2)c2ccc3oc4c(c3c2)CCCC4)cc1[N+](=O)[O-]	2%	-2	-36	-1.7	-18
Cc1c(C(=O)Nc2ccccc2)oc2c1C(=O)CC(C)(C)C2	-5%	0	3	-1.7	-27
Cc1ncc([N+](=O)[O-])n1CC(=O)NC1CCCCC1	-3%	0	2	0.2	-28
Nc1ccc(C(=O)O)cc1S(=O)(=O)O	-9%	-8	x	-0.3	x

Source: PubChem (several laboratories)
